Assay outcomes from PubChem.
MLL AF4-AF9 inh: inhibitors of AF4 peptide binding to AF9, primary screen, biochemical, AlphaScreen, biotin-AF4 peptide, FLAG-AF9, single point; inhibition, % at 10 µM; actives 0.47% (n = 350,000); AID 651704, 2012;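 active = every replicate reaching a set inhibition limit, whatever the replicate mean, cut at about 25% in these data; inconclusive = mean inhibition reaches that limit but some replicates miss it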;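 also: 0% = plate neutral control median and 100% = total signal loss; the record names both 10 and 1 µM as test concentration; the first replicate is given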
Target sequence (P42568 whole entry, looked up): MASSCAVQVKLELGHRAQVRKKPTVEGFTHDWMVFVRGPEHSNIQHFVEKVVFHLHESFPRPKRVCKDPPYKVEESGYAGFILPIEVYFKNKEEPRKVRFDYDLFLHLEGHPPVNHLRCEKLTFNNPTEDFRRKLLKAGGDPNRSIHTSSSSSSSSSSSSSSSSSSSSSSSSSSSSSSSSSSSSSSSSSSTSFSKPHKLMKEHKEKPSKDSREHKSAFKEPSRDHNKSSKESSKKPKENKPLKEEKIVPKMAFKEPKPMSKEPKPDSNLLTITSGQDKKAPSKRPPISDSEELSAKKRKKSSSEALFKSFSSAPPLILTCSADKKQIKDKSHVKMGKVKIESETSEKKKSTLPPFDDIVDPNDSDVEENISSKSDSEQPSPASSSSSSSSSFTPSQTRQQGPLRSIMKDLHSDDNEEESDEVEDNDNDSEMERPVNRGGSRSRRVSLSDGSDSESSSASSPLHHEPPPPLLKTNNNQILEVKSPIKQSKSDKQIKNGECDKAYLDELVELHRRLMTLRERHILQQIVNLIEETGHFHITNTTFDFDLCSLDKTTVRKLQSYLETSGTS
HNF4A DNA FP: change in binding of human HNF4A to DNA, primary screen, biochemical, fluorescence polarization, FITC-DNA. Hepatocyte nuclear factor 4-alpha (Homo sapiens), P41235. 1 h. activity change, % at 10 µM. actives 0.3% (n = 360,000). AID 1224865, 2016; in the data active = activity change above about 30%, passing the limit was not always enough;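 also: controls were the assay level and a saturating level of protein; the project sought stronger binding though the title names inhibitors; some compounds called inactive have numbers as strong as hits; positive values seem to mean higher polarization but the record does not say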
Target sequence (P41235 whole entry, looked up): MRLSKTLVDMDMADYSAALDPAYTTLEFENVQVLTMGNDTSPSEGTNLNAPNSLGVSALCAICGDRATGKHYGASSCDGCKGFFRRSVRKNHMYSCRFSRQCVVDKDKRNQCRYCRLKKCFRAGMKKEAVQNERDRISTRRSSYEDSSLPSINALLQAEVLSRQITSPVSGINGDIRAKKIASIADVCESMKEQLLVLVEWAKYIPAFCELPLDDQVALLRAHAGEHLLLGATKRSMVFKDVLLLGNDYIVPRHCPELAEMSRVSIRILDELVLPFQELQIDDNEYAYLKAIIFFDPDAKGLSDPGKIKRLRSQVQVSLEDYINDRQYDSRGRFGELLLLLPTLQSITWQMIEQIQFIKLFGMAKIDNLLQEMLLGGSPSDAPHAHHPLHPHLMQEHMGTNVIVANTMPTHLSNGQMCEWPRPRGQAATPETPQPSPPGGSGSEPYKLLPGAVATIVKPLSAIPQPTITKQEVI
UCH37 inh: inhibitors of human UCH37 deubiquitinase, primary screen, biochemical, Ub-AMC cleavage, fluorescence | Ubiquitin carboxyl-terminal hydrolase isozyme L5 (Homo sapiens), Q9Y5K5 | purified proteasome/UCH37 | inhibition, % (no concentration beside the values) | actives 0.33% (n = 330,000) | AID 588478, 2011;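 active = mean of two replicates above 20%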;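 also: 0% = compound-free wells with enzyme and 100% = wells lacking proteasome; stock transfer was 100 nL into about 20 µL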
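Material: human UCH37 enzyme supplied as purified proteasome complex / Amount: 0.15 nM proteasome as dispensed / Buffer or medium: pH 7.4 Tris-HCl (50 mM) with ovalbumin, ATP-MgCl2, DTT / Times: preincubation 30 min, reaction 25 min, room temperature / Technique: AMC fluorescence from Ub-AMC cleavage, excitation 355 nm, emission 460 nm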
Ecoli growth: E. coli growth inhibition, primary screen, OD600. Escherichia coli growth, 23 h; hits give low values. AID 1053175, 2014. actives 0.21% (n = 330,000). OD600 absorbance (concentration not given with the values);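 active = OD600 absorbance below the run mean of sample wells minus 3.6 SD, in any replicate, cut at about 0.56 in these data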;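 also: stock transfer was 300 nL into about 60 µL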
RanGTP-Imp inh: inhibitors of RanGTP-importin-beta interaction, primary screen, biochemical, FRET, CFP-Ran, YFP-importin-beta, homogeneous. Ran GTPase (GTP-bound) - importin-beta complex. cell-free CFP-Ran/YFP-importin-beta FRET ratio. inhibition, % (concentration not given with the values). actives 1.1% (n = 300,000). AID 2216, 2009;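 active = most replicates above 15%; inconclusive = exactly half above 15%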;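 also: 0% = DMSO wells and 100% = Ran loaded with GDP instead of GTP; wells of about 40 µL received 100 nL stock; the first replicate is given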
FGF22 binding: binders of human FGF22 protein, primary screen, FGF22 synaptogenesis inhibitor project, biophysical, thermal shift, single point. Fibroblast growth factor 22 (Homo sapiens), Q9HCT0. recombinant FGF22 thermal shift, SYPRO orange fluorescence; percent of sucrose octasulfate shift, DMSO zero. calls only at 9.99 µM. actives 1.5% (n = 340,000). AID 651658, 2012;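 active = melting point raised past a set limit in the mean and every replicate; inconclusive = no clear call; three in four hits are not shown here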
Vif TR-FRET: inhibitors of Vif binding to APOBEC3G peptide, primary screen, biochemical, TR-FRET, GST-Vif 1-94, biotin-A3G peptide, dose response retest (AID 1117319). Virion infectivity factor (Human immunodeficiency virus type 1 group M subtype B (isolate …. TR-FRET GST-Vif / biotin-A3G peptide binding; higher % means a stronger effect; test concentration not given here; strong numbers were not always called active. inhibition, %; hits with a dose series show IC50 in µM. actives 0.57% (n = 260,000);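 active = above the screen mean plus three standard deviations and confirmed in dose response; inconclusive = results disagree or hit not tested in dose response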;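 also: Vif residues 1-94 fused to GST binding biotinylated APOBEC3G peptide 110-148; 0% = full assay without inhibitor and 100% = GST in place of GST-Vif; retest series ran down from 100 µM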
Numbers without * were called inactive; i = inactive; ? = inconclusive; . = not tested or not shown; & = joins results of further samples. The list is partial; rates above refer to the full screens.

SMILES | MLL AF4-AF9 inh | HNF4A DNA FP | UCH37 inh | Ecoli growth | RanGTP-Imp inh | FGF22 binding | Vif TR-FRET
CSc1oc(-c2ccccc2)nc1S(=O)(=O)c1ccc(F)cc1 | -16.6 | 0.1 | 2.6 | 0.674 | 3.0 | i | 0.2%&0.5%
O=C(Nc1ccc(NC(=O)c2cccs2)cc1)c1ccc(Br)o1 | . | -5.5 | . | . | 4.6 | . | -2.5%
COc1ccc(N2CCN(C(=O)CSc3nnc4c(C)cc5ccc(C)c(C)c5n34)CC2)cc1 | . | 91.9 | -0.2 | 0.757 | 7.1 | . | 7.8%
O=C(Nc1nc(-c2ccc(-c3ccccc3)cc2)cs1)C1=COCCO1 | . | 1.6 | -12.0 | 0.721 | 5.4 | . | 4.6%
C/C(=N\NC(=O)c1cccc(S(=O)(=O)Nc2ccccc2Cl)c1)c1ccc(-n2ccnc2)cc1 | . | 1.3 | . | . | -1.7 | . | 10.9%
O=C(COC(=O)c1ccc(Cl)nc1)Nc1ccc2ccccc2c1 | -1.0 | -3.8 | 2.7 | 0.737 | . | i | -11.1%
Cc1csc(NC(=O)C2CCN(C(=O)c3ccccc3C)CC2)n1 | 1.2 | -2.1 | 2.5 | 0.669 | -4.9 | i | -1.1%
COc1ccccc1N1CCN(S(=O)(=O)c2cnc[nH]2)CC1 | -13.5 | 3.8 | -3.5 | 0.769 | 1.4 | i | 2.5%
COc1cc(NC(=O)COC(=O)c2[nH]c(C)c(C(C)=O)c2C)cc(OC)c1 | -6.3 | 1.9 | 1.1 | 0.68 | . | i | -8.2%
Nc1ccc(C#Cc2ccccc2)cc1 | . | 2.2 | -1.9 | 0.687 | 2.4 | . | -4.7%
CCOC(=O)C1(CCOC)CCN(Cc2ccc(COC)o2)CC1 | -1.2 | -6.3 | 2.4 | 0.699 | 2.8 | . | 0.5%
COc1ccc(OC)c(S(=O)(=O)NCC(=O)NC2CCCc3ccccc32)c1 (stereo unspecified) | 1.5 | 0.6 | 3.5 | 0.672 | . | i | -2.4%
CCCCn1c(=N)n(CC(=O)c2ccc([N+](=O)[O-])cc2)c2ccccc21 | 1.5 | . | . | . | 4.5 | i | 11.7%
O=c1[nH]c(Nc2ccc(F)cc2)cc2ccccc12 | . | 1.3 | -112.8 | 0.642 | 53.7* | . | 2.5%&10.7%
COc1ccc2cc(C3c4cc(OC)c(OC)cc4CCN3C(=O)c3ccco3)c(=O)[nH]c2c1 (stereo unspecified) | 2.5 | 2.3 | 5.9 | 0.61 | 25.7 | . | .
Cc1ccc(C(=O)OCN2C(=O)c3ccccc3C2=O)o1 | -2.5 | -0.8 | 3.6 | 0.637 | 4.2 | i | .
CNc1nnc(-c2ccc(OC)cc2)s1 | -0.2 | -1.2 | -2.9 | 0.66 | ? | i | 1.3%
COc1ccc(-c2nn(CCC#N)cc2C(=O)Nc2ccccn2)cc1OC | -3.2 | 0.1 | 2.2 | 0.726 | 0.9 | i | .
N#CC1=C(N)Oc2c(sc3ccccc23)C1c1ccco1 (stereo unspecified) | . | 8.3 | -5.1 | 0.719 | 54.7* | . | ?
COc1ccc(CCNC(=O)COc2ccc(S(=O)(=O)N3CCOCC3)cc2C)cc1 | -1.6 | 4.4 | 2.7 | 0.639 | 4.5 | i | .
O=C(N[C@@H](Cc1ccccc1)c1nc2ccccc2[nH]1)c1cc([N+](=O)[O-])ccc1Cl | 4.2 | 3.8 | 4.4 | 0.693 | -0.8 | i | 16.9%
COc1ccc(OC)c(-c2nc3cc4ccccc4cc3nc2-c2ccccc2)c1 | 17.7 | 1.8 | -3.0 | 0.741 | -2.1 | i | -5.7%
CC(C)(C)c1[nH]nc2c1C(Cc1ccccc1)C(C#N)=C(N)O2 (stereo unspecified) | . | -0.5 | 1.1 | 0.742 | -0.2 | . | 11.3%
CCNC(=O)c1cc2c(c(-c3cccc(-c4cc5ccccc5o4)c3)n1)[C@H](CCO)N(C(=O)NC(C)C)C2 | -0.3 | -0.2 | . | . | . | i | .

Quoted at random: 2 records from the list.
SMILES | MLL AF4-AF9 inh | HNF4A DNA FP | UCH37 inh | Ecoli growth | RanGTP-Imp inh | FGF22 binding | Vif TR-FRET
CCOC(=O)C1(CCOC)CCN(Cc2ccc(COC)o2)CC1 | -1.2 | -6.3 | 2.4 | 0.699 | 2.8 | . | 0.5%
COc1ccc(CCNC(=O)COc2ccc(S(=O)(=O)N3CCOCC3)cc2C)cc1 | -1.6 | 4.4 | 2.7 | 0.639 | 4.5 | i | .

(more compounds)
SMILES | MLL AF4-AF9 inh | HNF4A DNA FP | UCH37 inh | Ecoli growth | RanGTP-Imp inh | FGF22 binding | Vif TR-FRET
CC(C)CN(CC(C)C)S(=O)(=O)N1CCC(C(=O)NCc2ccc(F)cc2)CC1 | . | -1.2 | 2.1 | 0.649 | -0.8 | . | 4.8%
O=C(NCC1CCN(Cc2ccccc2Cl)CC1)Nc1ccccc1F | 3.7 | -2.8 | 2.6 | 0.65 | 16.6* | i | -9.8%
O=C(CSc1nnc(-c2ccco2)c(-c2ccco2)n1)Nc1ccccc1 | . | -12.5 | 2.5 | 0.768 | -2.9 | . | 3.12µM*
Cn1c(/C=C/N(Cc2ccccc2)c2ccccc2)c([N+](=O)[O-])c(=O)n(C)c1=O | 6.2 | -0.3 | 7.8 | 0.726 | 0.1 | i | -1.1%
CCSc1nc(-c2ccccc2)c(C#N)c(=O)[nH]1 | . | -0.5 | 2.3 | 0.701 | -1.3 | . | -7.8%
O=S(=O)(NCc1ccccn1)c1ccc(F)cc1 | -3.6 | -0.3 | 0.2 | 0.601 | -3.2 | i | ?
CCN(CC)C(=O)CSC1=Nc2ccccc2C2=NC(Cc3c[nH]c4ccccc34)C(=O)N12 (stereo unspecified) | . | 2.2 | 4.3 | 0.731 | -1.7 | . | 9.6%
Cc1ccc(S(=O)(=O)N(C)C[C@@H]2OCc3cn(nn3)CCCC(=O)N([C@@H](C)CO)C[C@H]2C)cc1 | 0.2&-0.8&1.3 | 7.5 | . | . | . | i | -1.4%
O=C(O)C1C2C=CC3(CN(CC(O)COc4ccccc4)C(=O)C13)O2 (stereo unspecified) | . | -1.0 | 2.2 | 0.709 | 1.7 | . | -1.5%
CCC(C)[C@H]1CNCCN1CCc1cc(C(F)(F)F)cc(C(F)(F)F)c1 (stereo partly specified) | -3.0 | -6.4 | -0.7 | . | ? | i | .
Cc1cc(C(F)(F)F)nn1Cc1n[nH]c(=S)n1Cc1ccccc1 | . | 3.5 | 1.0 | 0.713 | -2.4 | . | 1.4%
Cc1ccc(-c2nnc(SCC(=O)NCCN3C(=O)CSC3=O)n2C)cc1 | 2.9 | -0.9 | 3.8 | 0.71 | . | i | .
O=C(N/N=C/c1ccc(O)cc1)c1cc(-c2ccccc2)nc2ccccc12 | -5.6 | 1.5 | . | . | ? | i | 3.2%
Cc1ccccc1[C@@H](NC(=O)OC(C)(C)C)C(=O)OC(C)(C)C | -0.4 | 2.4 | 1.1 | . | . | i | .
O=C(CCNC(=O)c1ccc(Cl)cc1)Nc1nc2ccccc2[nH]1 | -0.7 | -1.9 | -0.9 | 0.636 | . | i | .
COc1ccc(OCCOc2ccc(N(C)S(=O)(=O)c3ccccc3)cc2)cc1 | -0.4 | 0.0 | 1.0 | 0.674 | . | i | 1.5%
Cc1cc(C(=O)NC2CCCN(Cc3ccc(Cl)cc3)C2)no1 (stereo unspecified) | -0.6 | 3.8 | 0.7 | 0.727 | 5.6 | i | .
COc1ccc(C(=O)/C=C/N2CCCCC2)cc1OC | . | 0.8 | 17.1 | 0.71 | 1.5 | . | 4.3%
Cc1ccc(SCC(=O)N(C)C2CCS(=O)(=O)C2)cc1 (stereo unspecified) | 0.3 | 0.4 | 1.7 | 0.722 | -8.9 | i | -0.6%
C=CCn1c(SCC(=O)N2CC(=O)Nc3ccccc32)nc2scc(-c3cccs3)c2c1=O | . | 0.9 | 1.8 | 0.707 | -8.1 | . | -12.4%
COc1ccc(C(CNC(=O)CCNC(=O)c2ccccc2Cl)N2CCCC2)cc1 (stereo unspecified) | 0.1 | 2.5 | -0.3 | 0.639 | . | i | .
CC(=O)NC1=NN(C(C)=O)C(c2cccc([N+](=O)[O-])c2)S1 (stereo unspecified) | -0.7 | -1.3 | 3.6 | 0.693 | 2.9 | i | .
COc1ccc(C2C(C(=O)c3cccs3)=C(O)C(=O)N2CCN2CCOCC2)c(OC)c1 (stereo unspecified) | -1.0 | -4.1 | 8.7 | 0.679 | -0.8 | i | -2.8%
CC1(C)CC(=O)N(c2ccc(C#N)cc2)C(=O)C1 | -10.2 | -1.9 | 5.5 | 0.664 | -2.1 | i | -17.3%
COc1cccc(CNC(=O)CCC2CCCN(Cc3cc4ccccc4o3)C2)c1 (stereo unspecified) | 1.2 | 0.6 | 2.6 | 0.654 | -5.5 | i | 7.0%
COc1ccc(OCc2cc(C(=O)N3CCOCC3)no2)c(Cl)c1 | 0.4 | -0.6 | -1.5 | 0.678 | 3.5 | i | .
COc1ccc(C(=O)COC(=O)c2sc(C)nc2C)cc1OC | 3.7 | 0.5 | 2.8 | 0.677 | . | i | .
CCC(C)N=CC1=C(O)C(C(=O)OC)C(C)(C)CC1=O (stereo unspecified) | . | -2.6 | 4.0 | 0.699 | 2.2 | . | -5.3%
CN1C(=O)N(C)C2(c3ccccc3)Nn3c(s/c(=C/c4ccco4)c3=O)=NC12c1ccccc1 (stereo unspecified) | . | -2.1 | . | . | 4.4 | . | ?
CN(Cc1cccnc1)C(=O)c1cc(S(=O)(=O)Nc2ccccc2F)ccc1Cl | -5.7 | -3.5 | 4.5 | 0.658 | . | . | 6.3%
O=C1/C(=C\c2ccc(C(F)(F)F)cc2)CSc2sccc21 | 0.3 | -3.2 | 9.4 | 0.607 | -1.5 | i | -12.7%
Cc1cc(C)n(C(=O)c2ccc(Cl)c(F)c2F)n1 | -2.1 | 0.4 | -0.1 | 0.589 | -0.7 | i | .
C[C@H]1[C@H](C)CC[C@]2(C)CC[C@]3(C)C(=CC(=O)C4[C@@]5(C)CC[C@H](O)C(C)(C)C5CC[C@]43C)[C@H]12 (stereo partly specified) | -9.0 | -1.6 | . | . | . | i | .
COC(=O)C(CC(=O)c1ccc(Br)cc1)n1nc(C)cc1C (stereo unspecified) | -1.3 | -1.1 | -1.1 | 0.677 | 1.2 | i | .
CCOc1c2ccccc2nn1CCO | 0.9 | -5.2 | 1.0 | 0.684 | . | i | .
CC(NC(=O)c1cccc(S(=O)(=O)N(C)c2ccccc2)c1)c1cccnc1 (stereo unspecified) | -0.9 | -0.7 | 1.7 | 0.692 | . | i | .
CCOC(=O)C1C(=O)CC(C)(O)C(C(=O)OCC)C1c1ccc(F)cc1 (stereo unspecified) | . | -0.5 | 5.5 | 0.693 | ? | . | 4.5%
O=C(CN1CCN(c2ccccc2O)CC1)Nc1ccc([N+](=O)[O-])cc1Br | -1.9 | 1.7 | 3.5 | 0.717 | 4.7 | i | .
CC(C)(C)C(=O)O/N=C(\N)c1ccc(-c2csnn2)cc1 | . | -3.3 | . | . | -2.8 | i | .
COc1ccc(-c2[nH]ncc2CNCCc2ncccc2C)cc1F | 0.5 | -0.4 | 0.5 | 0.704 | -2.9 | i | 1.4%
